RE007 growth inh: less growth of the S. pombe RE007 Vpr strain; S. pombe RE007 Vpr strain, BacTiter-Glo ATP luminescence, 24 h; control for the full effect not named in the record; Potency, µM (top dose mostly 92.2 µM), without a hit: at the highest dose activity change, negative = less growth; 360,000 tested, 0.21% active; AID 651644; active = well fitted falling curve with a large enough effect; inconclusive = small, poorly fitted or top-dose-only effect; inactive = no such curve, though single readings can be large or run the other way;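 also: % is scaled to controls: 0 for no effect and ±100 for the full control effect; nearly all actives have a fitted effect of over 50% in size; the assay follows cell death caused by Vpr and the record does not say whether a fall means rescue or toxicity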
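Fission yeast strain RE007, carrying one chromosomally integrated HIV-1 vpr copy, was seeded at OD 0.01 in PMG+AL medium with 23 nL pinned compound. After 24 h at 30 °C and 99% humidity, viability was read by BacTiter-Glo luminescence.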
Marburg entry inh: Marburg virus entry inhibition | 300,000 tested, 1.8% active | Marburg virus pseudotyped entry inhibition, cell reporter; control for the full effect not named in the record; about a third of the inactives were read at about 46 µM | Potency, µM (top dose mostly 37.8 µM), for inactives: top-dose activity change, negative = inhibition, most hits filed as inhibitors; active = well fitted inhibition curve with a large enough effect; inconclusive = small, poorly fitted or top-dose-only effect, or effect the other way; inactive = flat fitted curve, though single readings scatter; tested in HEK293 cells; about a fifth of its hits are not listed in these tables; also: % is scaled to controls: 0 for no effect and ±100 for the full control effect; luciferase read-out
NS1 inh: influenza NS1 inhibition; S. cerevisiae slowed by influenza A NS1, growth recovery by OD600; Potency, µM (doses to about 46.1 µM), inactives show at the top dose activity, positive = more growth; 270,000 tested, 0.4% active; active means well fitted rising curve with a large enough effect; inconclusive means small, poorly fitted or top-dose-only effect; inactive means no such curve, though single readings can be large or run the other way; also: nearly all actives have a fitted effect of over 50% in size
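A cell-based growth assay was used: compounds that relieve NS1-induced slow growth of budding yeast raise OD600. Assay medium was yeast nitrogen base with ammonium sulphate and -URA supplement, pH 6.0, with 2% galactose.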
SARS PLP yeast: inhibitors of SARS-CoV papain-like protease in yeast; S. cerevisiae expressing SARS-CoV PLpro, growth rescue; control for the full effect not named in the record; Potency, µM (highest dose often 32.9 µM), without a hit: at the highest dose activity, positive = growth rescue; 330,000 tested, 0.19% active; AID 485353; active means well fitted rising curve with a large enough effect; inconclusive means small, poorly fitted or top-dose-only effect; inactive means no such curve, though single readings can be large or run the other way; also: 0% is about no effect; nearly all actives have a fitted effect of over 55% in size; growth read by luminescence after 48 h
2A StopGo: lowers the luciferase signal of an FMDV 2A StopGo reporter | human cells with a luciferase reporter of 2A StopGo recoding; control for the full effect not named in the record | Potency, µM (titrated, usually from 57.9 µM), without a hit: at the top dose signal change, negative = less light | 410,000 tested, 1.2% active | AID 1159524; active = well fitted falling curve with a large enough effect; inconclusive = small, poorly fitted or top-dose-only effect; inactive = no such curve, though single readings can be large or run the other way; tested in HEK293T cells; also: % is scaled to controls: 0 for no effect and ±100 for the full control effect; nearly all actives have a fitted effect of over 45% in size; luciferase light after 4 h
Cruzain noTriton: inhibitors of Trypanosoma cruzi cruzain without detergent; P25779; purified cruzain, Z-FR-AMC fluorescence, no detergent; Potency, µM, without a hit: max response, negative = inhibition, actives largely listed as inhibitors; 200,000 tested, 2.3% active; AID 1476;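 also: plate controls were enzyme without inhibitor for no effect and buffer without enzyme for full effect; nearly all actives have a fitted effect of over 40% in size; top concentration of the series not given in the record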
Target sequence (P25779 123-467 limits assumed): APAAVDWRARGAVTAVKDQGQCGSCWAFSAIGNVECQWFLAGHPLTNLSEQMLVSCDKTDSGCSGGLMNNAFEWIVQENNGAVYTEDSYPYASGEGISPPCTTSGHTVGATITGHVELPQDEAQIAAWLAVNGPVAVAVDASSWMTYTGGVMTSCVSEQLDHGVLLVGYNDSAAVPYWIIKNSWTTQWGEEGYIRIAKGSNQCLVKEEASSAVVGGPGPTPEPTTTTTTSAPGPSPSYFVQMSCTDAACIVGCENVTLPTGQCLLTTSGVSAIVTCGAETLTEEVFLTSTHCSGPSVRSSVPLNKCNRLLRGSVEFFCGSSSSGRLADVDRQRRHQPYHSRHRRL
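Purified cruzain at 1.5 nM, pre-incubated 15 min with compound at room temperature in 100 mM sodium acetate pH 5.5, 5 mM DTT, 0.00005% Triton X-100. Reaction started with 2 uM Z-FR-AMC; AMC fluorescence increase over 60 s gives rate.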
LASV entry inh: inhibitors of Lassa virus binding or cell entry. AID 540256. Lassa virus pseudotype entry inhibition, cell reporter; control for the full effect not named in the record. Potency, µM (top dose mostly 37.9 µM), inactives show at the highest dose activity change, negative = inhibition, actives largely listed as inhibitors. 300,000 tested, 1.2% active; active means well fitted inhibition curve with a large enough effect; inconclusive means small, poorly fitted or top-dose-only effect, or effect the other way; inactive means flat fitted curve, though single readings scatter; tested in HEK293 cells; also: % is scaled to controls: 0 for no effect and ±100 for the full control effect; nearly all actives have a fitted effect of over 50% in size; luciferase read-out
Cruzain Triton: cruzain (T. cruzi) inhibition with detergent | P25779 | purified cruzain, Z-FR-AMC fluorescence, 0.01% Triton | Potency, µM, without a hit: max response, negative = inhibition, usual class: inhibitors | 200,000 tested, 0.43% active;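 also: plate controls were neutral wells for no effect and buffer without enzyme for full effect; nearly all actives have a fitted effect of over 40% in size; top concentration of the series not given in the record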
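Z-FR-AMC hydrolysis (2 uM substrate) by cruzain (1.5 nM) monitored kinetically at ex 360/em 450 nm after 15 min room-temperature compound exposure; 0.01% Triton X-100, pH 5.5, 5 mM DTT.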
The depositor's hits bear a star; u = inconclusive; x = no result given; & = joins results of further samples; ! = not confirmed by another sample; [ ] = dose if it differs, or a comment. Unless noted, calls follow the shape of the dose curve; as a rule, active = well fitted curve in the direction sought with a large enough effect; inconclusive = small, poorly fitted or top-dose-only effect, or another doubt; inactive = no such curve, though single readings can be large; an effect the other way counts as inactive or inconclusive. Potency is read from the fitted curve at half-maximal effect. Compounds were not picked by outcome. About 4.7% of those tested had a hit in this group.

1) COCCn1nnnc1C(c1cccs1)N1CCN(c2cc(C)ccc2C)CC1 (stereo unspecified)
2) O=C(NCc1ccccc1)C1CCCN(S(=O)(=O)c2cccs2)C1 (stereo unspecified)
3) COCCNC(=O)Cn1c(=O)n(CCCCCC(=O)Nc2ccccc2)c(=O)c2sccc21
4) COc1ccc(N=Cc2c(O)n(-c3cccc(C)n3)c(=O)c3ccccc23)cc1
5) Cc1ccc(NC(=O)Nc2cccnc2)cc1NC(=O)Nc1cccnc1
6) CCc1c(C)sc(NC(=S)NC(C)C2CCCO2)c1C(=O)OC (stereo unspecified)
compound no.	1	2	3	4	5	6
Marburg entry inh	16µM*!	2%	u	2%	x	-1%[14.2 µM]
RE007 growth inh	6%	1%	0%	-4%	7%	-13%
Cruzain Triton	-2.8%	-1.0%	-1.8%&1.4%	-8.6%	x	x
SARS PLP yeast	-4%	-2%	2%	7%	1%	0%
LASV entry inh	u	u	u	u	x	u
NS1 inh	-31%	5%	-5%	-4%	1%	2%
2A StopGo	x	16%	1%&5%	u	u	10%
Cruzain noTriton	u	-6%	6%&-5%	u	x	x

7) CCCCOc1ccc(C(C)NC(=O)CCS(=O)(=O)Cc2ccccc2F)cc1 (stereo unspecified)
8) O=C(CSc1nc2ccccc2s1)NC1CCCC1
9) O=C(NCC12CC3CC(CC(C3)C1)C2)c1nc2ncccn2n1
10) O=C(CSc1ccc(-c2ccccn2)nn1)N1CCc2ccccc21
11) Cc1cccc2sc(NNC(=O)C3=COCCO3)nc12
12) COc1ccc(S(=O)(=O)N(CCc2ccccc2)CC(=O)Nc2cc(C)ccc2C)cc1
compound no.	7	8	9	10	11	12
Marburg entry inh	-17%	u	7%	25%[46.1 µM]	10%[14.2 µM]	x
RE007 growth inh	10%	1%	-13%	-17%	9%	x
Cruzain Triton	-3.0%	x	0.1%	x	x	-4.6%
SARS PLP yeast	28%	0%	-3%	2%	0%	x
LASV entry inh	8%	10%	-10%	19%	-12%	u
NS1 inh	4%	-5%	-10%	x	5%	x
2A StopGo	-14%	-1%	-4%	8%	25%	-25%
Cruzain noTriton	-8%	x	25%	x	x	-14%

13) CC(=O)N1c2ccc(S(=O)(=O)N3CCC(C(=O)NC4CCCCC4C)CC3)cc2CC1C (stereo unspecified)
14) COc1ccccc1C(=O)N1CCN(c2ccc(N3CCOCC3)nn2)CC1
15) CC1CCC(C(C)C)C(=O)/C1=C/c1ccc(N)cc1 (stereo unspecified)
16) CN(Cc1ccccc1)C(=O)CSc1nnc(-c2ccco2)n1-c1ccccc1
17) Cn1c(O)c(C(=N)COc2ccccc2)c(=O)n(C)c1=O
18) O=C(Nc1cc(S(=O)(=O)N2CCCCC2)ccc1N1CCOCC1)c1cc(=O)[nH]c2ccccc12
compound no.	13	14	15	16	17	18
Marburg entry inh	x	u	x	-18%	9%	x
RE007 growth inh	1%	-14%	-5%	u	4%	-4%
Cruzain Triton	x	x	x	2.1%	0.2%	x
SARS PLP yeast	-9%	-12%	-10%	4%	4%	2%
LASV entry inh	x	14%	x	1%	18%	x
NS1 inh	-5%	x	7%	-5%	-11%	3%
2A StopGo	-13%	3%	29%	-25%	-15%	-3%
Cruzain noTriton	x	x	x	-3%	-11%	x

Overlap with the part before: three compounds, followed by the next part.
16) CN(Cc1ccccc1)C(=O)CSc1nnc(-c2ccco2)n1-c1ccccc1
17) Cn1c(O)c(C(=N)COc2ccccc2)c(=O)n(C)c1=O
18) O=C(Nc1cc(S(=O)(=O)N2CCCCC2)ccc1N1CCOCC1)c1cc(=O)[nH]c2ccccc12
19) COc1ccc(CNC(=O)c2cccc(N3CCCS3(=O)=O)c2)cc1
20) COc1ccc(N(CC(=O)N/N=C(\C)c2ccc(OC)c(OC)c2)S(=O)(=O)c2ccccc2)cc1
21) CCOC(=O)c1cnn(CCOC(=O)c2ccc(OC)cc2)c1NC(=O)c1ccc(OC)cc1
22) O=C(CSc1nnc(COc2ccccc2Cl)o1)NC(=O)NC1CCCC1
23) CC(=O)Nc1ccc(C(=O)OCC(=O)N2CC3(C)CC2CC(C)(C)C3)cc1 (stereo unspecified)
24) O=C(/C=C/c1ccccc1)Nc1nnc(-c2ccco2)o1
compound no.	16	17	18	19	20	21	22	23	24
Marburg entry inh	-18%	9%	x	x	-29%[46.1 µM]	-4%	u	1%[46.1 µM]	-25%
RE007 growth inh	u	4%	-4%	x	2%	2%	-6%	0%	8%
Cruzain Triton	2.1%	0.2%	x	2.6%	x	-2.9%	0.5%	x	x
SARS PLP yeast	4%	4%	2%	x	2%	10%	-6%	-2%	-1%
LASV entry inh	1%	18%	x	9%[46.1 µM]	-35%[46.1 µM]	u	-4%	-21%[46.1 µM]	8%
NS1 inh	-5%	-11%	3%	x	u	8%	-44%	x	1%
2A StopGo	-25%	-15%	-3%	-22%	-6%	-18%	-7%	7%	0%
Cruzain noTriton	-3%	-11%	x	-3%	x	12%	13%	x	x

25) COc1ccccc1OCc1nnc(SCCN2CCOCC2)o1
26) COc1ccccc1C(=O)Nc1ccc2oc(-c3ccc(F)cc3)nc2c1
27) COc1ccccc1C(=O)Nc1cccc(-c2cn3ccsc3n2)c1
28) CC(=O)Nc1ncc(Cc2cccc(Cl)c2)s1
29) O=C(OC(C(=O)NCc1cccs1)c1ccc(F)cc1)c1ccco1 (stereo unspecified)
30) COc1ccc(C(=O)NNC(=O)COc2ccc(Cl)cc2C)cc1S(=O)(=O)N1CCOCC1
compound no.	25	26	27	28	29	30
Marburg entry inh	1%	u	x	u	21%	-1%
RE007 growth inh	-7%	-5%	x	2%	24%	-16%
Cruzain Triton	4.0%	-3.2%	-3.0%	x	-15%	x
SARS PLP yeast	0%	-9%	-27%	-6%	-4%	-5%
LASV entry inh	2%	-15%	x	-17%[46.1 µM]	-1%	25%
NS1 inh	1%	-14%	-26%	-76%	-1%	x
2A StopGo	-14%	37%[activator]	x	0%	13%	-21%
Cruzain noTriton	-10%	u	1%	x	-9%	x

31) COc1ccc(Cn2ccc3nc(C)c(C(=O)Nc4ccc(OC)cc4)cc3c2=O)cc1
32) COc1cccc(N2C(=O)CN(Cc3ccc(OC)c(OC)c3)C2=S)c1
33) CC(C)Oc1cccc(C(=O)Nc2ccc(N3CCN(S(C)(=O)=O)CC3)cc2)c1
34) Cc1ccc(NC(=O)c2ccc3c(c2)C(=O)N(c2ccccc2C)C3=O)nc1
35) COc1ccc(-c2cn3c(n2)sc2cc(C(=O)NCC(C)c4ccccc4)ccc23)cc1 (stereo unspecified)
36) Cc1c(NC(=S)NC(=O)c2cccc(Br)c2)c(=O)n(-c2ccccc2)n1C
compound no.	31	32	33	34	35	36
Marburg entry inh	x	0%[46.1 µM]	-3%	u	x	22%[46.1 µM]
RE007 growth inh	x	0%	13%	0%	x	27%
Cruzain Triton	-4.8%	x	-2.4%	x	-5.6%	x
SARS PLP yeast	x	-3%	4%	-5%	x	2%
LASV entry inh	u	-10%[46.1 µM]	12%	2%	-19%[46.1 µM]	u
NS1 inh	x	1%	3%	x	x	4%
2A StopGo	-22%	-20%	-3%	-20%	-10%	3%
Cruzain noTriton	u	x	-27%	x	0%	x

37) Cn1c(=O)c2c(nc(CN3CCCCC3)n2CCCc2ccccc2)n(C)c1=O
38) COc1ccc(N2CCN(C(=S)Nc3ccc(C)cc3)CC2)cc1
39) Cc1ccc2nc(N(CCCN(C)C)C(=O)c3ccc(S(=O)(=O)N4CCc5ccccc5C4)cc3)sc2c1
40) CCOc1ccccc1CNC(=O)c1c([N+](=O)[O-])c(C)nn1C
41) N/C(=N\OC(=O)/C=C/c1ccccc1)c1ccc(Cl)cc1
42) CC(C)[N+](C)(C)CC(O)CN(c1ccccc1)c1ccccc1 (stereo unspecified)
compound no.	37	38	39	40	41	42
Marburg entry inh	4%	x	u	-14%	u	11%
RE007 growth inh	3%	31%	21%	-7%	-8%	3%
Cruzain Triton	x	x	x	-2.4%	x	x
SARS PLP yeast	x	0%	4%	15%	-1%	-1%
LASV entry inh	-2%	x	u	-10%	-5%	u
NS1 inh	3%	-2%	-3%	-11%	-4%	0%
2A StopGo	u	2%	u	-2%	17%	12%
Cruzain noTriton	x	x	x	-4%	x	x

Record cards, as listed above.
Record of Cn1c(=O)c2c(nc(CN3CCCCC3)n2CCCc2ccccc2)n(C)c1=O = Marburg entry inh = 4%; RE007 growth inh = 3%; Cruzain Triton = x; SARS PLP yeast = x; LASV entry inh = -2%; NS1 inh = 3%; 2A StopGo = u; Cruzain noTriton = x
Record of CCOc1ccccc1CNC(=O)c1c([N+](=O)[O-])c(C)nn1C = Marburg entry inh = -14%; RE007 growth inh = -7%; Cruzain Triton = -2.4%; SARS PLP yeast = 15%; LASV entry inh = -10%; NS1 inh = -11%; 2A StopGo = -2%; Cruzain noTriton = -4%

Carrying on:
43) Nc1nonc1NC(=O)CSc1ncccc1C(=O)O
44) N#Cc1cc2sc3nc4ccccc4n3c2cc1C#N
45) CCOC(=O)CCCNC(=O)CN1CCC(c2nc3ccccc3s2)CC1
46) COc1ccc(CCNC(=O)CSc2n[nH]c(-c3ccccc3Cl)n2)cc1OC
47) COC(=O)c1sc(NC(=O)COc2ccc(OC)cc2)nc1C
compound no.	43	44	45	46	47
Marburg entry inh	1%&1%	-2%	-8%[46.1 µM]	x	-9%
RE007 growth inh	-5%	x	3%	x	3%
Cruzain Triton	1.0%	2.4%	x	3.8%	x
SARS PLP yeast	4%	2%	1%	x	x
LASV entry inh	2%	x	-25%	-3%[46.1 µM]	-21%
NS1 inh	-2%	-7%	-1%	x	x
2A StopGo	x	x	-29%	-13%	0%
Cruzain noTriton	1%	-10%	x	8%	x

Compound activity: PubChem BioAssay, National Center for Advancing Translational Sciences (NCATS)
